Screening data (PubChem)
PrP UTR inh – inhibition of PrP 5' UTR reporter expression; cell-based PrP 5' UTR mRNA reporter, plate reader; inhibition, % (concentration not given with the values); hit rate 0.35% among 340,000; AID 488862, 2010;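 active means every replicate at 50% or more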;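 further: 0 = median of the neutral control wells; tested in H4 reporter cells; numbers are from one replicate; inactives centre near -14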
Mtb hypoxia rep – PubChem AID 1159583. hit rate 0.1% among 300,000. M. tuberculosis hypoxia-regulated fluorescent reporter, fluorescence. fluorescence inhibition, % (test concentration not listed);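 active means 35 to 45% if threefold the growth effect, above 45% if 1.5-fold the growth effect; inactive means the rest, general growth blockers included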;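 further: wells of about 50 µL received 100 nL stock; 0% = vehicle wells and 100% = reference inhibitor wells; whole bacteria with a GFP reporter of the hypoxia response; strong numbers were not always called active; many hits fall short of the cut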
BJeLR lethal – MLPCN primary cell-based screen for lethality selective to Ras in HRASV12 cells. BJeLR (HRASV12) viability, CellTiter-Glo ATP luminescence, 48 h; reference of the scale not given here. inhibition, % (no concentration beside the values). hit rate 0.17% among 300,000;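 active means replicate mean above 50%; inconclusive means above 50% but judged a plate artefact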;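 further: 50 nL library stock added to about 25 µL; numbers are from one replicate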
Autofluor counter – counter-screen for toxin protease inhibitors: compound fluorescence | compound autofluorescence counterscreen, microsphere flow cytometry; stronger effect = higher value | fluorescence intensity (concentration not given with the values) | hit rate 3.1% among 360,000;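 active means at least 3 SD above the mean of all compounds, about 16000 in these data; inconclusive means too few beads counted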;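 further: 100 nL of 1 mM stock went into each well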
ugtP null kill – growth inhibition of ugtP-null S. aureus, primary screen, RN4220 ugtP deletion, OD600 | AID 1259309, 2017 | growth inhibition, % (test concentration not listed) | 16 h; some inactives read as strong as hits | hit rate 0.54% among 330,000;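 active means z-score under -3 and OD600 up to 0.15 on both plates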;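 further: plate controls were untreated wells for no effect and antibiotic for full effect; wells of about 80 µL received 100 nL stock; the first replicate is given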
Sa RN4220 lethal – growth inhibition of S. aureus RN4220, primary screen, OD600; 16 h; inhibition, % (no concentration beside the values); hit rate 0.33% among 330,000;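 active means z-score of -3 or lower and OD600 up to 0.18 on both plates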;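 further: plate controls were untreated cells for no effect and reference antibiotic for full effect; stock transfer was 100 nL into about 80 µL; one replicate is shown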
Mtb hypoxia rep growth – recorded beside Mtb hypoxia rep, whose call it bears; growth inhibition, %; measured here: M. tuberculosis growth (absorbance);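 0% = vehicle and 100% = reference antibiotic; read after six days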
An asterisk follows results filed as active; u = inconclusive; x = not tested or not shown.

Value order: Mtb hypoxia rep	Mtb hypoxia rep growth	Sa RN4220 lethal	Autofluor counter	PrP UTR inh	ugtP null kill	BJeLR lethal
CC(=O)N1N=C(c2cccs2)CC1c1ccc(C)o1 (centres undefined)
 : -2	6	1.5	2340	-6	0	-4
Cn1nnc(NC(=S)NC(=O)/C=C/c2ccco2)n1
 : 9	2	1.3	5899	-13	6	1
CNC(=O)/C=C/c1cccc(C(F)(F)F)c1
 : 10	6	5.1	2221	-26	0	-1
Cc1cccc(NC(=O)CN2C(=O)CCSc3ccc(S(=O)(=O)N4CCOCC4)cc32)c1C
 : 12	-1	6.5	5678	-9	9	9
O=C(Nc1nnc(SCC(=O)N2CCCCC2)s1)c1ccccc1F
 : -1	-1	-2.8	5840	-36	-5	1
CCC(C)(C(=O)Nc1ccc(OC)cc1)N(C)C(=O)Cn1nnnc1N (centres undefined)
 : -1	2	0.8	6266	-14	8	6
O=C1CCc2cc(S(=O)(=O)N3CCCC3C(=O)NC3CCCCCCC3)ccc2N1 (centres undefined)
 : 7	12	-10	6518	-20	-3	-5
Cn1c(Cn2c(=O)sc3ccccc32)nnc1SCC(=O)NCc1ccccc1Cl
 : x	x	-1.0	4332	-16	1	-2
Cc1ccc(-c2nnn(CC(=O)NC3CC4CCC3C4)n2)cc1 (centres undefined)
 : 10	14	3.9	x	2	6	-5
O=C(COC(=O)c1ccccc1NC(=O)C1CC1)c1ccc2c(c1)OCCO2
 : 14	0	2.7	x	x	5	-5

The closing 2 entries of the section before lead into the next:
Value order: Mtb hypoxia rep	Mtb hypoxia rep growth	Sa RN4220 lethal	Autofluor counter	PrP UTR inh	ugtP null kill	BJeLR lethal
Cc1ccc(-c2nnn(CC(=O)NC3CC4CCC3C4)n2)cc1 (centres undefined)
 : 10	14	3.9	x	2	6	-5
O=C(COC(=O)c1ccccc1NC(=O)C1CC1)c1ccc2c(c1)OCCO2
 : 14	0	2.7	x	x	5	-5
O=C(CNC(=O)c1ccco1)N/N=C/c1cc(Br)ccc1O
 : x	x	x	3566	-13	x	-2
COc1cccc(C(=O)N2CCN=C2SCc2cccnc2)c1OC
 : x	x	-2.2	4184	-4	-3	-3
NCCSc1c(-c2ccc(Cl)cc2)[nH]c2ccccc12
 : 0	12	4.6	4490	-10	2	-6
COc1cccc(C(=O)CN2CCC(NC(=O)NC3CCCCC3)CC2)c1
 : -8	11	1.3	13711	-40	1	10
Cc1ccc(Nc2nc(N)c([N+](=O)[O-])c(NCc3ccco3)n2)cc1
 : 9	-1	-7.5	2361	-19	-14	-12
CCNc1ccc(S(=O)(=O)N(C)C)cc1[N+](=O)[O-]
 : 4	9	2.2	4490	-13	13	-1
CC1CC(C)CN(C(=O)CN2CCN(Cc3ccc(Cl)cc3)C2=O)C1 (centres undefined)
 : 12	8	3.0	8984	-10	1	1
COc1ccccc1-n1cc(C(=O)NCC(=O)N2CCN(Cc3ccccc3)CC2)c2ccccc2c1=O
 : 5	1	2.8	4337	-31	-5	1
O=C(Cn1nnc2ccccc21)NNC(=O)c1ccccc1
 : 16	-6	1.5	4658	-8	6	1
O=C(CCc1nnc(CCc2ccccc2)o1)N1CCCCC1CCn1cccn1 (centres undefined)
 : 7	10	-0.6	2559	-14	13	-5
O=C(CNS(=O)(=O)c1ccccc1)OCC(=O)c1cccc([N+](=O)[O-])c1
 : x	x	x	9476	-17	x	-10
Cc1ccccc1NS(=O)(=O)c1cc(C(N)=O)ccc1C
 : 3	2	7.1	5726	-17	2	1
Cc1cc(C)c(C(=O)NC2CCCc3c2cnn3-c2ccc(C)c(C)c2)c(=O)[nH]1 (centres undefined)
 : 1	5	-1.1	3704	-17	-5	8
COc1cc(OC)c(OC)cc1CN1CCN(Cc2cccn2C)CC1
 : 5	15	3.7	2475	-12	1	4
CCOC(=O)[C@@H]1[C@H]2COc3ccccc3[C@@H]2N2C(=O)N(c3ccc(C(F)(F)F)cc3)C(=O)[C@]12C
 : x	x	x	2935	-21	x	8
O=C([C@H](Cc1ccccc1)NS(=O)(=O)c1ccc(Cl)cc1)N1CC[C@@]2(O)CCCC[C@H]2C1
 : x	x	x	3383	-12	x	0
COc1ccccc1CN1CC(C(=O)N2CCN(c3ccc(F)cc3)CC2)CC1=O (centres undefined)
 : 8	5	5.4	10636	-21	8	-14
CC(C)Oc1ccc(CNC(=S)N/N=C/c2cccnc2)cc1
 : x	x	x	2531	-4	x	-2
O=C(NCc1ccc2c(c1)OCO2)c1ccc(Cl)c(S(=O)(=O)NCc2ccccc2)c1
 : 2	1	-9.2	2811	-2	35	0
COc1ccc(CNCc2c(O)c(Cl)cc3c(C)c(C)c(=O)oc23)c(OC)c1
 : 8	8	-0.7	3193	-11	-5	8
Cc1ccc(N(CC(O)CN(C)C)S(=O)(=O)c2ccccc2)cc1 (centres undefined)
 : x	x	1.0	2906	-22	-4	-3
CSc1nc(-c2ccc(Cl)cc2)nn1C(=O)c1ccccc1
 : 0	6	1.6	10438	-62	5	8
CCOC(=O)c1sc(=N)n(-c2ccc(OC)cc2)c1C
 : 21	2	8.1	2012	-39	3	12
OCC1(Cc2ccccc2C(F)(F)F)CCN(Cc2ccncc2)CC1
 : 15	13	3.2	3422	-25	1	0
CCOC(=O)c1cc(-c2ccco2)nc2c1c(C)nn2-c1ccccc1
 : x	x	-2.6	x	-21	-5	3
CCc1ccc(CN(C)Cc2nc(Cc3ccc(OC)c(OC)c3)no2)nc1
 : -8	-3	3.2	2690	-20	6	3
CC1=C(C(=O)OCc2ccccc2)C(c2ccccc2[N+](=O)[O-])NC(=O)N1C (centres undefined)
 : 7	4	4.9	3600	-16	-3	0
COc1ccc(CCC(=O)NNC(=O)c2ccccn2)cc1OC
 : -1	-7	2.2	5975	-13	5	x
COc1ccc(C(=O)NCC2(c3ccccc3)CCCC2)c(OC)c1
 : 16	15	12	4021	x	15	-12
C/C(=N\Nc1nc2ccccc2[nH]1)c1ccc2c(c1)OCCO2
 : x	x	x	4255	-36	x	-4
O=C1OC(c2ccccc2)(c2ccc(O)cc2)c2ccccc21 (centres undefined)
 : 0	0	3.8	2925	-10	2	x
Cc1ccc(NC(=O)C2CCCN(S(=O)(=O)c3ccc4[nH]c(=O)ccc4c3)C2)cc1C (centres undefined)
 : x	x	8.1	4766	0	11	0
CC1CN(C(=O)COC(=O)c2cc([N+](=O)[O-])ccc2Cl)CC(C)O1 (centres undefined)
 : 19	9	6.9	4883	-6	2	0
COc1ccc(OC)c(NC(=O)CCN2CCN(c3ccccc3OC)CC2)c1
 : 5	-13	1.7	3268	-37	2	7
O=C(CN(C(=O)Cn1nnc(-c2cccs2)n1)c1ccc2c(c1)OCCO2)NCc1ccccc1
 : -1	-2	-0.8	4151	-15	1	-4
Cc1nn(-c2nc3ccccc3n2Cc2ccccc2)c2c1C(=O)CC(C)(C)C2
 : x	x	-0.8	4576	-13	3	x
CNc1cc(F)nc(F)n1
 : 7	6	2.7	2548	4	6	-6
CC1(C(=O)O)CCC(C(=O)Nc2ccc(Cl)c(Cl)c2)C1(C)C (centres undefined)
 : -2	-2	5.7	4054	-8	2	9
CC(=O)c1c(C)nc2ccc(Br)cc2c1C(=O)O
 : -6	0	6.6	5368	-15	6	1
COc1ccc(Br)cc1C=NNC(=O)c1cccc(S(=O)(=O)N2CCOCC2)c1
 : -1	-15	1.6	x	x	1	x
CCN(CC)CCn1c(=S)[nH]c2ncccc2c1=O
 : 20	6	3.5	4496	-22	11	0
CCc1cccc(C)c1NC(=O)CC1Oc2ccc(C)cc2NC1=O (centres undefined)
 : 14	19	1.8	3364	-10	6	-6
BrCC1C[n+]2c(SCc3ccccc3)nc3sc4c(c3c2O1)CCCC4 (centres undefined)
 : -3	-2	5.4	4444	-29	11	-5
CCCN1CCN(C(=O)c2cn(CC(C)C)c(=O)c3cc(OC)c(OC)cc23)CC1
 : -7	-4	1.1	9308	-1	-6	-8
O=C(CN1C(=O)NC2(CCCCCC2)C1=O)c1ccc(Cl)cc1
 : -6	8	2.5	u	x	1	x
CN(CCN1CCOCC1)Cc1nc(-c2ccc(Cl)cc2)no1
 : -14	6	3.9	4234	-3	6	5
O=C(CNc1cccc(S(=O)(=O)N2CCOCC2)c1)N1CCc2ccccc21
 : -2	10	5.2	4193	-33	7	10
CC(=O)N1c2ccc(S(=O)(=O)N3CCCC3)cc2CC1C(=O)Nc1cc(C)cc(C)c1 (centres undefined)
 : 4	6	2.8	6925	0	1	0
CCOc1ccc(CN2CCN(C/C=C/c3ccc(OC)cc3)CC2CCO)cc1 (centres undefined)
 : -13	9	-3.6	2805	-14	-6	6
Cc1ccc[n+](-c2[nH]c(=O)sc2C=N/N=C(\[O-])CCn2c3ccccc3c3ccccc32)c1
 : -10	-2	2.7	x	x	-4	x

Additional compounds.
Value order: Mtb hypoxia rep	Mtb hypoxia rep growth	Sa RN4220 lethal	Autofluor counter	PrP UTR inh	ugtP null kill	BJeLR lethal
CCOc1ccc(NC(=O)c2ccc(CNc3c(NC4CCCCC4)c(=O)c3=O)cc2)cc1
 : 4	0	3.2	5013	-36	7	-3
O=C(Nc1cccc2ccccc12)c1cccc(F)c1
 : 21	8	9.5	3926	-22	-2	-1
CCN(CC)C(=O)NC1CCCCCCC1
 : -3	1	2.6	2377	-6	3	-1
Cc1cccc(C(=O)NC(=S)Nc2ccccc2C(=O)O)c1
 : 4	12	0.4	3441	-24	-3	0
O=C(Cn1ccc([N+](=O)[O-])n1)NCc1nc2ccccc2[nH]1
 : 11	3	0.3	3925	-15	-3	-6
CCN(C(=O)COc1ccc(N(C)S(=O)(=O)c2ccc(NC(C)=O)cc2)cc1)C1CCCCC1
 : 6	4	6.7	3612	-15	-2	x
CCNC(=S)NNC(=O)c1cccn(Cc2ccc(Cl)cc2Cl)c1=O
 : 4	14	1.9	22212*	6	1	-1
Cc1ccc(S(=O)(=O)NC(C)(C)CSc2nncn2C)cc1
 : 4	-1	-1.9	9186	-22	-1	1
Cc1ccc(CN2C(=O)N/C(=C\c3cccn3-c3cccc(C(=O)O)c3)C2=O)cc1
 : 4	7	4.2	3555	-23	10	4
O=C(CCCSc1ccccc1)Nc1ccc(Cl)c(S(=O)(=O)N2CCOCC2)c1
 : 10	2	-1.6	4035	-4	-9	x
CCOC(=O)C1CCN(S(=O)(=O)c2csc(C(N)=O)c2)CC1
 : 5	14	2.5	5832	8	1	5
CC(C)CC(C)NNC(=O)c1cc2ccccc2[nH]1 (centres undefined)
 : -4	2	0.8	7661	-21	-2	-2
CN(C(=O)c1ccc(NC(=O)C2CCCN(C(=O)OC(C)(C)C)C2)cc1)C1CCCC1 (centres undefined)
 : 12	8	5.6	3710	-18	-1	x
O=C(NCC1CCOCC1)c1cc(COc2cccc(C(F)(F)F)c2)on1
 : 2	-6	3.9	4282	-12	0	3
CCn1c(COc2cccc(C)c2)nnc1SCC(=O)N1CCCC1
 : 1	-3	6.9	9129	-13	-9	-4
C/C(CC(=O)NC12CC3CC(CC(C3)C1)C2)=N\NC(=O)c1cnccn1
 : x	x	x	4382	-16	x	-8
Cn1c(SCC(=O)Nc2cc(S(=O)(=O)N3CCOCC3)ccc2N2CCOCC2)nnc1-c1ccncc1
 : 5	-1	3.3	4845	-4	2	-20
Nc1nc(Cl)cc(N2CCC(c3cc(-c4ccc(Cl)cc4Cl)n[nH]3)CC2)n1
 : 2	16	32	21717*	5	30	-1
CNC(=O)NC(=O)CSc1nnc(-c2ccco2)n1Cc1ccccc1
 : x	x	-1.1	4604	-14	9	-5
CCOC(=O)Nc1ccc2c(c1)Nc1ccccc1S2
 : 9	13	-6.9	20181*	-21	-15	7
Cc1ccc(CNC(=O)C(NS(=O)(=O)c2ccc3nc(C)sc3c2)C(C)C)cc1 (centres undefined)
 : x	x	-1.2	5079	11	4	-4
COC(=O)CNC(=O)COC(=O)/C=C/c1ccccc1[N+](=O)[O-]
 : 15	1	9.2	5018	0	2	1
COCCn1c(SCC(=O)NC2CCCCC2C)nnc1-c1ccncc1 (centres undefined)
 : -10	-9	2.8	3732	7	6	-3
CCOC(=O)Cc1c(C)nc(N)[nH]c1=O
 : 9	8	16	3193	-16	4	1
O=C(Cc1cccc(NC(=O)C2CCCN(C(=O)c3ccccc3)C2)c1)Nc1ccc(C(=O)N2CCCCC2)cc1 (centres undefined)
 : 1	1	5.3	3963	-9	7	x
